Assay outcomes deposited in PubChem by Broad Institute.
Env fusion inh – HIV envelope-mediated fusion inhibition; HeLa-JRFL Env/CEM21 cell fusion, luciferase; inhibition, % at 12.3 µM; 360,000 compounds, 1.1% hits; AID 651610;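 active means mean replicate inhibition score of at least 50 and every replicate individually at or above 50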;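 further: 0% = plate neutral controls and 100% = maraviroc near 300 nM; one replicate is shown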
UUG fidelity – modulators of start codon recognition fidelity in yeast; S. cerevisiae UUG-firefly luciferase reporter, luminescence/redox ratio; activity score, % at 18.7 µM; 350,000 compounds, 0.13% hits; AID 602363;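 active means replicate mean at a twofold rise or more, about +100% in these data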;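 further: firefly luciferase made from a UUG start codon reports start codon fidelity; reporter light over untreated wells divided by growth signal over untreated wells; some hits fall short of that in this replicate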
Starred values were filed as active, the others as inactive; [ ] = another dose, or the depositor's remark. Only part of the results is shown (hit frequency here may not be typical).

Order of values – Env fusion inh | UUG fidelity
1. C[C@@H]1CN([C@H](C)CO)C(=O)c2cc(C#Cc3cccnc3)cnc2O[C@@H]1CN(C)Cc1cccnc1
→ -21[16.7 µM] | -7
2. CC(C)C#Cc1cnc2c(c1)C(=O)N([C@@H](C)CO)C[C@H](C)[C@@H](CN(C)C(=O)c1cnccn1)O2
→ -58[16.7 µM] | 1
3. Cc1noc(C)c1NC(=O)N(C)C[C@@H]1Oc2ccc(NC(=O)Nc3ccc4c(c3)OCO4)cc2C(=O)N([C@H](C)CO)C[C@H]1C
→ 3[16.7 µM] | 0
4. C[C@H]1CN([C@@H](C)CO)S(=O)(=O)c2ccc(-c3cccc(F)c3)cc2O[C@H]1CN(C)C
→ 16[16.7 µM] | 13
5. COCC(=O)N(C)C[C@@H]1Oc2ncc(-c3cccc(OC)c3)cc2C(=O)N([C@H](C)CO)C[C@H]1C
→ -24[16.7 µM] | 2
6. O=C(O)C[C@H]1C[C@H]2c3cc(NC(=O)CC4CC4)ccc3O[C@H]2[C@@H](CO)O1
→ 2[16.7 µM] | -3
7. C[C@@H]1CN([C@H](C)CO)S(=O)(=O)c2ccc(C#CC3CC3)cc2O[C@@H]1CN(C)C(=O)CC1CC1
→ -6[16.7 µM] | 5
8. C[C@H](CO)N1C[C@H](C)[C@H](CN(C)C(=O)C2CCCCC2)OCCCC[C@H](C)Oc2ccc(NS(=O)(=O)c3cccs3)cc2C1=O
→ -12[16.7 µM] | 5
9. CCCNC(=O)C[C@H]1CC[C@H]2[C@H](COc3ccc(NC(=O)c4cccc(OC)c4)cc3C(=O)N2C)O1
→ 19[16.7 µM] | 17
10. C[C@@H]1CN([C@@H](C)CO)C(=O)Cc2cc(NC(=O)Nc3ccccc3)ccc2O[C@@H]1CN(C)Cc1ccncc1
→ 21[16.7 µM] | 1
11. C[C@H](CO)N1C[C@H](C)[C@H](CN(C)C(=O)Cc2ccncc2)Oc2ncc(C#CCN(C)C)cc2C1=O
→ 4[16.7 µM] | -7
12. COc1ccc(S(=O)(=O)Nc2ccc3c(c2)CC(=O)N([C@H](C)CO)C[C@@H](C)[C@H](CN(C)S(=O)(=O)c2ccc(OC)cc2)O3)cc1
→ -10[16.7 µM] | -10
13. C[C@@H]1CN([C@H](C)CO)C(=O)c2cc(Br)cnc2O[C@H]1CN(C)C(=O)c1ccccc1F
→ -1[16.7 µM] | 0
14. CCNC(=O)C[C@@H]1C=C[C@@H](NS(=O)(=O)c2ccc(C)cc2)[C@H](CO)O1
→ -3[16.7 µM] | -17
15. COCCNC(=O)C[C@H]1CC[C@H]2[C@@H](COc3ccc(NC(=O)Nc4ccccc4)cc3C(=O)N2C)O1
→ -3[16.7 µM] | 1
16. O=C(NCC[C@H]1CC[C@H](NC(=O)C2CCC2)[C@@H](CO)O1)Nc1ccc(Cl)cc1
→ -7[16.7 µM] | 10
17. Cc1noc(C)c1S(=O)(=O)Nc1ccc2c(c1)C(=O)N([C@@H](C)CO)C[C@@H](C)[C@@H](CN(C)C(=O)Nc1ccccc1)OCCCC[C@H](C)O2
→ 15[16.7 µM] | -4
18. CCNC(=O)C[C@@H]1CC[C@@H]2[C@@H](COc3ccc(NS(=O)(=O)c4ccccc4C)cc3C(=O)N2C)O1
→ -40[16.7 µM] | -5
19. CCc1cnc(N2[C@@H](C#N)[C@@H](c3ccc(C#Cc4ccccc4F)cc3)[C@@H]2CO)s1
→ 54[16.7 µM] | -10
20. CO[C@H]1CN(C)C(=O)c2cc(NS(C)(=O)=O)ccc2OC[C@H](C)N(C(=O)C2CCC2)C[C@H]1C
→ 18[16.7 µM] | -1

One compound at a time (already shown).
C[C@H]1CN([C@@H](C)CO)S(=O)(=O)c2ccc(-c3cccc(F)c3)cc2O[C@H]1CN(C)C in the list: Env fusion inh = 16[16.7 µM]; UUG fidelity = 13
CCNC(=O)C[C@@H]1CC[C@@H]2[C@@H](COc3ccc(NS(=O)(=O)c4ccccc4C)cc3C(=O)N2C)O1 in the list: Env fusion inh = -40[16.7 µM]; UUG fidelity = -5

Further results:
Order of values – Env fusion inh | UUG fidelity
21. C[C@@H]1CN([C@@H](C)CO)C(=O)c2cc(NC(=O)CCCN(C)C)ccc2O[C@@H](C)CCCCO[C@H]1CN(C)CC1CCCCC1
→ -2[16.7 µM] | -2
22. C[C@@H]1CN([C@H](C)CO)C(=O)c2cc(-c3ccccc3)cnc2O[C@H]1CN(C)C(=O)Nc1ccc2c(c1)OCO2
→ -5[16.7 µM] | 3
23. CN1CCN(C(=O)C[C@@H]2CC[C@H](NS(=O)(=O)c3cccc(F)c3)[C@H](CO)O2)CC1
→ -16[16.7 µM] | -11
24. O=C(C[C@H]1C[C@@H]2c3cc(NC(=O)C4CCC4)ccc3O[C@@H]2[C@H](CO)O1)NCc1ccc(Cl)cc1
→ 41[16.7 µM] | 6
25. C[C@H](CO)N1C[C@H](C)[C@H](CN(C)Cc2cccc(C(=O)O)c2)Oc2ncc(C#CCc3ccccc3)cc2C1=O
→ 4[16.7 µM] | 4
26. COc1cccc(S(=O)(=O)N(C)C[C@@H]2Oc3cc(C#CCN(C)C)ccc3S(=O)(=O)N([C@@H](C)CO)C[C@@H]2C)c1
→ -11[16.7 µM] | 3
27. C[C@@H]1CN([C@H](C)CO)C(=O)c2cc(NC(=O)Nc3ccc(F)cc3)ccc2O[C@H]1CN(C)S(C)(=O)=O
→ 1[16.7 µM] | 0
28. Cc1noc(C)c1NC(=O)Nc1ccc2c(c1)C(=O)N([C@@H](C)CO)C[C@H](C)[C@H](CN(C)C(=O)CCCN(C)C)OCCCC[C@H](C)O2
→ -27[16.7 µM] | 13
29. O=C(C[C@@H]1CC[C@@H](NC(=O)C2CCC2)[C@H](CO)O1)Nc1nccs1
→ -3[16.7 µM] | -25
30. C/C=C/c1ccc2c(c1)O[C@H](CN(C)CC1CCCC1)[C@@H](C)CN([C@H](C)CO)S2(=O)=O
→ 5[16.7 µM] | -4
31. CC(=O)Nc1ccc2c(c1)C(=O)N(C)[C@@H]1CC[C@H](CC(=O)NCc3ccc4c(c3)OCO4)O[C@H]1CO2
→ 19[16.7 µM] | 2
32. O=C1O[C@@H](c2ccccc2)[C@@H](c2ccccc2)N2[C@@H](c3ccccc3OCCO)[C@]3(C(=O)Nc4ccc(C#CCCO)cc43)[C@@H](C(=O)N3CCN(c4ncccn4)CC3)[C@H]12
→ 4[16.7 µM] | -12
33. CO[C@H]1CN(C)C(=O)c2ccc(NC(=O)Nc3cccc(Cl)c3)cc2OC[C@@H](C)NC[C@H]1C
→ 5[16.7 µM] | 5
34. C[C@H](CO)N1C[C@H](C)[C@H](CN(C)C(=O)CC2CC2)Oc2cc(C3=CCCC3)ccc2S1(=O)=O
→ -15[16.7 µM] | 15
35. C[C@H]1CN([C@@H](C)CO)C(=O)c2cc(NC(=O)C3CCCCC3)ccc2O[C@@H]1CN(C)C(=O)Nc1ccc(C(F)(F)F)cc1
→ 12[16.7 µM] | -1
36. Cc1ccc(S(=O)(=O)N[C@@H]2CC[C@@H](CCn3cc(-c4cccc(F)c4)nn3)O[C@H]2CO)cc1
→ 4[16.7 µM] | -5
37. COc1ccc(CNC(=O)C[C@H]2CC[C@@H](NC(=O)Nc3ccc4c(c3)OCO4)[C@@H](CO)O2)cc1
→ 31[16.7 µM] | -3
38. CNC[C@@H]1Oc2cc(-c3ccc(C(=O)N(C)C)cc3)ccc2S(=O)(=O)N([C@@H](C)CO)C[C@H]1C
→ -22[16.7 µM] | -13
39. CN(C)C(=O)C[C@@H]1CC[C@@H]2[C@H](COC[C@H](O)CN2C(=O)c2ccncc2)O1
→ -29[16.7 µM] | -2
40. C[C@H]1CCCCO[C@@H](CN(C)CC2CCCCC2)[C@@H](C)CN([C@@H](C)CO)C(=O)c2cc(NS(=O)(=O)c3ccc(F)cc3)ccc2O1
→ 7[16.7 µM] | 24
41. CNC[C@@H]1Oc2ccc(NS(=O)(=O)c3cn(C)cn3)cc2C(=O)N([C@@H](C)CO)C[C@H]1C
→ -3[16.7 µM] | -12
42. O=C(N[C@@H]1CC[C@@H](CCNS(=O)(=O)Cc2ccccc2)O[C@H]1CO)c1ccc2c(c1)OCO2
→ 0[16.7 µM] | 3
43. Cc1ccc(S(=O)(=O)Nc2ccc3c(c2)C(=O)N([C@H](C)CO)C[C@@H](C)[C@H](CN(C)C)OCCCC[C@@H](C)O3)cc1
→ 1[16.7 µM] | 6
44. COCC(=O)Nc1ccc2c(c1)OC[C@@H](C)NC[C@H](C)[C@H](OC)CN(C)C2=O
→ -2[16.7 µM] | -10
45. C[C@H](CO)N1C[C@H](C)[C@H](CN(C)C)Oc2ncc(-c3cc4ccccc4o3)cc2C1=O
→ 11[16.7 µM] | -1
46. C[C@H](O)C#Cc1cnc2c(c1)C(=O)N([C@@H](C)CO)C[C@H](C)[C@H](CN(C)C(=O)c1ccccc1)O2
→ -2[16.7 µM] | -4
47. COCC(=O)Nc1ccc2c(c1)C(=O)N(C)C[C@H](OC)[C@@H](C)CN(C)[C@@H](C)CO2
→ 0[16.7 µM] | 5
48. CN1C(=O)c2cc(NC(=O)C3CCCCC3)ccc2OC[C@H]2O[C@@H](CC(=O)NC3CCCC3)CC[C@@H]21
→ 1[16.7 µM] | 19
49. C[C@H](CO)N1C[C@H](C)[C@H](CN(C)C(=O)Nc2ccc(C(F)(F)F)cc2)OCCCC[C@H](C)Oc2ccc(NC(=O)NC3CCCCC3)cc2C1=O
→ 8[16.7 µM] | -10
50. COCCNC(=O)C[C@H]1CC[C@@H]2[C@H](COc3ccc(NC(=O)C4CCCC4)cc3C(=O)N2C)O1
→ -18[16.7 µM] | -2
51. C[C@H](NC(=O)C[C@@H]1C=C[C@H](NC(=O)C2CCOCC2)[C@H](CO)O1)c1ccccc1
→ -2[16.7 µM] | 9
52. C[C@@H]1CCCCO[C@@H](CN(C)C(=O)Nc2ccc(C(F)(F)F)cc2)[C@H](C)CN([C@@H](C)CO)C(=O)c2cc(NS(C)(=O)=O)ccc2O1
→ 12[16.7 µM] | 0
53. C[C@H](CO)N1C[C@H](C)[C@@H](CN(C)C(=O)Cc2ccccc2)Oc2cc(C#Cc3ccccc3F)ccc2S1(=O)=O
→ 11[16.7 µM] | -2
54. C[C@H]1CN([C@@H](C)CO)C(=O)c2cc(-c3ccc(F)cc3)cnc2O[C@@H]1CN(C)Cc1ccccn1
→ 15[16.7 µM] | -19
55. C[C@@H]1CN([C@H](C)CO)C(=O)c2cc(NS(=O)(=O)c3ccc(F)cc3)ccc2O[C@@H](C)CCCCO[C@@H]1CN(C)Cc1ccc(C(=O)O)cc1
→ 11[16.7 µM] | -6
56. O=C(CC1CC1)N[C@H]1CC[C@H](CCNS(=O)(=O)c2ccc(Cl)cc2)O[C@H]1CO
→ 9[16.7 µM] | -7
57. C[C@H](CO)N1C[C@H](C)[C@@H](CN(C)C(=O)c2ccccc2F)Oc2ncc(-c3ccncc3)cc2C1=O
→ 11[16.7 µM] | -14
58. COCC(=O)N(C)C[C@@H]1Oc2ncc(-c3ccc(C#N)cc3)cc2C(=O)N([C@H](C)CO)C[C@H]1C
→ -12[16.7 µM] | -3
59. C[C@@H]1CN([C@@H](C)CO)C(=O)Cc2cc(NC(=O)NC3CCCCC3)ccc2O[C@@H]1CN(C)Cc1ccccc1
→ -23[16.7 µM] | 4
60. C[C@@H]1CCCCO[C@@H](CN(C)C(=O)Nc2ccc(F)cc2)[C@@H](C)CN([C@H](C)CO)C(=O)c2cc(NC(=O)Nc3ccc4c(c3)OCO4)ccc2O1
→ -3[16.7 µM] | 9

Arranged by SMILES length (lowest first): 3 of the compounds above
Order of values – Env fusion inh | UUG fidelity
50. COCCNC(=O)C[C@H]1CC[C@@H]2[C@H](COc3ccc(NC(=O)C4CCCC4)cc3C(=O)N2C)O1
→ -18[16.7 µM] | -2
43. Cc1ccc(S(=O)(=O)Nc2ccc3c(c2)C(=O)N([C@H](C)CO)C[C@@H](C)[C@H](CN(C)C)OCCCC[C@@H](C)O3)cc1
→ 1[16.7 µM] | 6
12. COc1ccc(S(=O)(=O)Nc2ccc3c(c2)CC(=O)N([C@H](C)CO)C[C@@H](C)[C@H](CN(C)S(=O)(=O)c2ccc(OC)cc2)O3)cc1
→ -10[16.7 µM] | -10

Structural class, those above with two or more sulfur atoms
Order of values – Env fusion inh | UUG fidelity
8. C[C@H](CO)N1C[C@H](C)[C@H](CN(C)C(=O)C2CCCCC2)OCCCC[C@H](C)Oc2ccc(NS(=O)(=O)c3cccs3)cc2C1=O
→ -12[16.7 µM] | 5
12. COc1ccc(S(=O)(=O)Nc2ccc3c(c2)CC(=O)N([C@H](C)CO)C[C@@H](C)[C@H](CN(C)S(=O)(=O)c2ccc(OC)cc2)O3)cc1
→ -10[16.7 µM] | -10
26. COc1cccc(S(=O)(=O)N(C)C[C@@H]2Oc3cc(C#CCN(C)C)ccc3S(=O)(=O)N([C@@H](C)CO)C[C@@H]2C)c1
→ -11[16.7 µM] | 3

Next section
Order of values – Env fusion inh | UUG fidelity
61. C[C@@H]1CN([C@H](C)CO)C(=O)Cc2cc(NC(=O)Nc3ccc(C(F)(F)F)cc3)ccc2O[C@H]1CN(C)C(=O)Nc1cccc2ccccc12
→ -13[16.7 µM] | -7
62. C[C@H]1CCCCO[C@H](CN(C)CC2CC2)[C@@H](C)CN([C@@H](C)CO)C(=O)c2cc(NC(=O)Nc3ccc(C(F)(F)F)cc3)ccc2O1
→ -1[16.7 µM] | 19
63. C[C@H]1CN([C@@H](C)CO)C(=O)c2cc(C#Cc3ccccn3)cnc2O[C@H]1CN(C)C(=O)CCN1CCCCC1
→ 1[16.7 µM] | -12
64. C[C@@H]1CN([C@H](C)CO)C(=O)c2cc(/C=C/c3ccccc3)cnc2O[C@@H]1CN(C)C(=O)Nc1ccccc1F
→ -7[16.7 µM] | 14
65. CN(C)C(=O)C[C@H]1C=C[C@@H](NC(=O)NC2CCCCC2)[C@@H](CO)O1
→ -5[16.7 µM] | -12
66. COc1ccc(CN(C)C[C@@H]2OCCCC[C@H](C)Oc3ccc(NC(=O)Nc4ccc5c(c4)OCO5)cc3C(=O)N([C@@H](C)CO)C[C@H]2C)cc1
→ 4[16.7 µM] | 3
